# CatG inh = cathepsin G (human) inhibition; P08311; purified enzyme, AMC-tetrapeptide fluorescence, pooled mixtures; inhibition, % at 5 µM (by protocol); 0.2% of 62,000 active;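 active = inhibition above 20% in each of the two mixture wells holding the compound; inactive = inhibition of 20% or less in either well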;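 also: 0% = enzyme control without mixture and 100% = blank lacking enzyme; strong numbers were not always called active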
# Target sequence (P08311 21-244 limits assumed): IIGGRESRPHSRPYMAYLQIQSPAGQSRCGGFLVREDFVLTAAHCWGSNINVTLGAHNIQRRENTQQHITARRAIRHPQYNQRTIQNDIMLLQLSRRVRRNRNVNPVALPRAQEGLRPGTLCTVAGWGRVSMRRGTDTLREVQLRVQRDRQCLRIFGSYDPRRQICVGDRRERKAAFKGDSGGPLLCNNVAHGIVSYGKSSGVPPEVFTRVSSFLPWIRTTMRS
# CatS block = human cathepsin S inhibition | inhibition, %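 (tested at 5 µM per compound within 10-compound mixtures)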 | 0.06% of 62,000 active | recombinant cathepsin S, AMC dipeptide fluorescence, pooled mixtures | AID 501 | P25774; in the data active = inhibition above about 32%, passing the limit was not always enough;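 also: 0% = enzyme without compound and 100% = blank without enzyme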
# Target sequence (P25774 115-331 limits assumed): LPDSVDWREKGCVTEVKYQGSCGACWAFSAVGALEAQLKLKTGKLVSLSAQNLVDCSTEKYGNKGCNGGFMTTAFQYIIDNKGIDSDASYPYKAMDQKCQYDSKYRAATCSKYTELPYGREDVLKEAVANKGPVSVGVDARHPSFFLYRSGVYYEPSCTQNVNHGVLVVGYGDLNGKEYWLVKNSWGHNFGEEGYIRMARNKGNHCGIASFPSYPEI
# FXIIa inh mix = blocks human factor XIIa in pooled compound mixtures; P00748; purified FXIIa, fluorogenic substrate; inhibition, % at 5 µM; 0.2% of 62,000 active; AID 684; in the data active = inhibition above about 20%, passing the limit was not always enough;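 also: 0% = enzyme without compound and 100% = no enzyme blank; some results filed as inactive read as strong as hits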
# CatL block = blocks human cathepsin L protease activity. 0.17% of 58,000 active. inhibition, %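 (tested at 10 µM)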. purified cathepsin L, fluorogenic substrate, fluorescence; in the data active = inhibition above about 45%;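 also: 0% = enzyme with no compound and 100% = no enzyme blank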
# CatB block = human cathepsin B inhibition. P07858. purified cathepsin B, fluorogenic substrate, fluorescence. inhibition, %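 (tested at 10 µM)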. 0.1% of 63,000 active. AID 453; in the data active = inhibition above about 21%;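 also: 0% = enzyme with no compound and 100% = no enzyme blank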
# CatB mix inh = inhibitors of human cathepsin B in compound mixtures; P07858; Purified cathepsin B, AMC dipeptide fluorescence; inhibition, %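 (ten-compound pools at 5 µM per compound and 50 µM total)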; 0.06% of 62,000 active; AID 488; in the data active = inhibition above about 22%, passing the limit was not always enough;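 also: 0% = enzyme without compound and 100% = no enzyme blank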
# Abs 340nm = absorbance at 340 nm. fold change at 10 µM. 65,000 tested, under 10 active. compound absorbance at 340 nm, fold over control. AID 708;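 active = at 10 µM dose, initial 340 nm absorbance at least 2 fold that of control wells; inactive = change under 2 fold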;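 also: initial absorbance extrapolated from kinetic A340 decline of NADH oxidation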
# Starred values were filed as active, the others as inactive; / = no result given. The list is partial. The share of hits here may be higher or lower than overall.
# Short keys: A = CatG inh; B = CatS block; C = FXIIa inh mix; D = CatL block; E = CatB block; F = CatB mix inh; G = Abs 340nm
[1] CCN(CC)S(=O)(=O)N1CCC(C(=O)NC2CCCC2)CC1
  A: -6; B: 1; C: -7; D: 4; E: 4; F: -4; G: 1

[2] COc1ccc(C2CC(=O)NC3=C2C(=O)CCC3)cc1Cl (stereo not given)
  A: -8; B: 17; C: 7; D: 15; E: 8; F: 2; G: 0.99

[3] Oc1oc(-c2ccco2)nc1C=Nc1ccccc1
  A: 15; B: 3; C: 7; D: 10; E: 1; F: 4; G: 1.1

[4] O=C(CSc1nnc2c(Cl)cc(C(F)(F)F)cn12)Nc1ccc2c(c1)OCO2
  A: -3; B: 8; C: -20; D: 7; E: -2; F: 4; G: 1

[5] COc1ccc(-n2ncc3c(NC(C)C)ncnc32)cc1
  A: 11; B: -1; C: 2; D: 17; E: 3; F: -2; G: 1

[6] N#Cc1cnc(SCC(=O)c2ccccc2)nc1N
  A: 5; B: 2; C: 4; D: -5; E: -4; F: 6; G: 0.98

[7] COc1ccc2sc(NC(C)=O)nc2c1
  A: 1; B: -6; C: -3; D: 19; E: 3; F: -2; G: 0.99

[8] Cc1cc(=O)oc2c(C)c(OCC(=O)N(C)C)ccc12
  A: 0; B: 3; C: -2; D: /; E: -3; F: -1; G: 1.1

[9] CCCCn1nnnc1NCc1ccc(OC)c(OC)c1
  A: 10; B: -3; C: -19; D: -6; E: 5; F: 4; G: 1

[10] CC(=O)c1cc(Cl)ccc1OC(=O)c1ccco1
  A: 5; B: -9; C: 1; D: 0; E: -3; F: 6; G: 1

[11] COC(=O)c1ccc(OC(=O)c2ccco2)cc1
  A: 5; B: -6; C: 3; D: -10; E: 0; F: 1; G: 1

[12] O=c1cc(O)nc(SCc2ccccc2Cl)[nH]1
  A: 6; B: -3; C: -13; D: -3; E: 0; F: 0; G: 0.96

[13] Cn1c(SCC(=O)NCc2ccco2)nnc1-c1c[nH]c2ccccc12
  A: -2; B: -3; C: 6; D: /; E: 0; F: -1; G: 1

[14] CCCS(=O)(=O)N1CCCC(C(=O)N2CCN(C(=O)OCC)CC2)C1 (stereo not given)
  A: 1; B: 6; C: 15; D: 9; E: -2; F: 6; G: 0.99

[15] CCCCn1nnnc1NCc1cccnc1
  A: -1; B: 6; C: 5; D: 4; E: -1; F: -3; G: 1

# 9 entries out of the list, arranged by heavy-atom count, lowest first.
# Short keys: A = CatG inh; B = CatS block; C = FXIIa inh mix; D = CatL block; E = CatB block; F = CatB mix inh; G = Abs 340nm
[7] COc1ccc2sc(NC(C)=O)nc2c1
  A: 1; B: -6; C: -3; D: 19; E: 3; F: -2; G: 0.99

[12] O=c1cc(O)nc(SCc2ccccc2Cl)[nH]1
  A: 6; B: -3; C: -13; D: -3; E: 0; F: 0; G: 0.96

[10] CC(=O)c1cc(Cl)ccc1OC(=O)c1ccco1
  A: 5; B: -9; C: 1; D: 0; E: -3; F: 6; G: 1

[6] N#Cc1cnc(SCC(=O)c2ccccc2)nc1N
  A: 5; B: 2; C: 4; D: -5; E: -4; F: 6; G: 0.98

[8] Cc1cc(=O)oc2c(C)c(OCC(=O)N(C)C)ccc12
  A: 0; B: 3; C: -2; D: /; E: -3; F: -1; G: 1.1

[9] CCCCn1nnnc1NCc1ccc(OC)c(OC)c1
  A: 10; B: -3; C: -19; D: -6; E: 5; F: 4; G: 1

[1] CCN(CC)S(=O)(=O)N1CCC(C(=O)NC2CCCC2)CC1
  A: -6; B: 1; C: -7; D: 4; E: 4; F: -4; G: 1

[14] CCCS(=O)(=O)N1CCCC(C(=O)N2CCN(C(=O)OCC)CC2)C1 (stereo not given)
  A: 1; B: 6; C: 15; D: 9; E: -2; F: 6; G: 0.99

[13] Cn1c(SCC(=O)NCc2ccco2)nnc1-c1c[nH]c2ccccc12
  A: -2; B: -3; C: 6; D: /; E: 0; F: -1; G: 1

# Later entries:
# Short keys: A = CatG inh; B = CatS block; C = FXIIa inh mix; D = CatL block; E = CatB block; F = CatB mix inh; G = Abs 340nm
[16] COc1ccc(CNC(=O)C2CC(c3ccc(F)cc3)=NO2)cc1 (stereo not given)
  A: 2; B: -4; C: -4; D: -1; E: -3; F: 1; G: 1

[17] COc1ccc(OC)c(CN(CCCN2CCOCC2)S(=O)(=O)c2ccc(NC(C)=O)cc2)c1
  A: -2; B: 7; C: 5; D: 16; E: 3; F: -1; G: 1

[18] CC(=O)c1ccc(NC(=O)C2CC(c3ccc(F)cc3)=NO2)cc1 (stereo not given)
  A: 7; B: -1; C: 12; D: 5; E: 3; F: 3; G: 1

[19] CCOC(=O)N1CCN(C(=O)C2CCN(S(=O)(=O)c3cc(Cl)ccc3Cl)CC2)CC1
  A: 13; B: 1; C: 4; D: 24; E: 2; F: -3; G: 1.1

[20] CCOC(=O)c1cc(OC(=O)c2cccs2)n(-c2ccccc2)n1
  A: 16; B: -6; C: 11; D: -4; E: -1; F: 1; G: 1

[21] O=C(C1COc2ccccc2O1)N1CCCC1 (stereo not given)
  A: -30; B: -19; C: -3; D: 0; E: 3; F: -3; G: 1.1

[22] CCOc1ccc(C2C(C#N)=C(N)Oc3cc(C)n(Cc4ccco4)c(=O)c32)cc1OC (stereo not given)
  A: 14; B: 4; C: 4; D: 8; E: 1; F: 4; G: 0.99

[23] COc1ccc2c(c1)Cc1sc(NC(C)=O)nc1-2
  A: -7; B: 13; C: 0; D: 12; E: 9; F: 5; G: 1.1

[24] O=C(NC1CCCC1)C1CC(c2ccc(F)cc2)=NO1 (stereo not given)
  A: 0; B: 0; C: 10; D: -6; E: 1; F: 0; G: 1

[25] CCOc1ccc(C2C(C#N)=C(N)Oc3cc(C)n(CCN(C)C)c(=O)c32)cc1OCC (stereo not given)
  A: 1; B: -6; C: 1; D: -4; E: 1; F: -1; G: 1

[26] Cc1c(C)c2ccc(OCc3ccc(C(=O)O)o3)c(C)c2oc1=O
  A: 3; B: 10; C: 5; D: -5; E: -3; F: -1; G: 1

[27] COCc1cc(=O)[nH]c(/N=C(\N)Nc2ccc(Oc3ccccc3)cc2)n1
  A: -7; B: -2; C: -3; D: 27; E: -5; F: -6; G: 1

[28] CCCCn1nnnc1NCc1cc(OC)c(OC)cc1OC
  A: 10; B: -1; C: -18; D: 5; E: 11; F: 6; G: 1

[29] COc1ccc(C(=O)Oc2ccc(/C=N/O)cc2)cc1
  A: 11; B: -1; C: 3; D: 13; E: 1; F: 0; G: 1

[30] Cc1nn(-c2ccccc2)c2[nH]c(=O)c(CNCC3CCCO3)cc12 (stereo not given)
  A: -7; B: 17; C: 2; D: 19; E: 10; F: 7; G: 1

[31] CCC(=O)c1ccc(OCc2ccc(C(=O)OC)o2)c(OC)c1
  A: 9; B: 7; C: 8; D: 14; E: 9; F: 4; G: 1

[32] CCCS(=O)(=O)N1CCC(C(=O)N2CCN(C(=O)OCC)CC2)CC1
  A: 8; B: -10; C: 15; D: 2; E: 8; F: 2; G: 1

[33] CCOC(=O)N1CCN(S(=O)(=O)N(C)C)CC1
  A: 8; B: -1; C: 5; D: 8; E: 0; F: 3; G: 0.98

# High-throughput results: PubChem, several laboratories
